Bioassay records: PubChem, several laboratories
HSV replic up = HSV replication enhancement. HSV replication augmentation in cells, fold increase. maximum fold increase. hit rate 0.005% among 220,000;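 active = peak rise of 1.5-fold or more in the series; tested in PC3 cells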;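 note: first round at 10 µM; read as green reporter fluorescence; hits show the peak of a series up to 25 µM; 1 = signal of infected wells without compound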
INS promoter inh = TRM-6 insulin promoter activity inhibition | TRM-6 cells (human fetal islet line), insulin promoter-eGFP reporter, imaging; reporter expression induced with tamoxifen | inhibition, % at 2 µM | hit rate 0.9% among 130,000 | AID 1273;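 active = inhibition above the mean plus 3 SD, with well images judged a real hit on visual review, cut at about 60% in these data, passing the limit was not always enough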
GALR2 ag = GALR2 (human) receptor agonism | O43603 | GALR2-expressing cells, agonist activation read-out | activation, %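 (tested at 5 µM)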 | hit rate 0.48% among 140,000 | AID 803;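 active = above mean plus 3 SD of all compounds, about 5% in these data, not always enough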;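 note: 0% = vehicle buffer wells and 100% = reference agonist at full effect; tested in CHO reporter cells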
Target sequence (O43603 whole entry, looked up): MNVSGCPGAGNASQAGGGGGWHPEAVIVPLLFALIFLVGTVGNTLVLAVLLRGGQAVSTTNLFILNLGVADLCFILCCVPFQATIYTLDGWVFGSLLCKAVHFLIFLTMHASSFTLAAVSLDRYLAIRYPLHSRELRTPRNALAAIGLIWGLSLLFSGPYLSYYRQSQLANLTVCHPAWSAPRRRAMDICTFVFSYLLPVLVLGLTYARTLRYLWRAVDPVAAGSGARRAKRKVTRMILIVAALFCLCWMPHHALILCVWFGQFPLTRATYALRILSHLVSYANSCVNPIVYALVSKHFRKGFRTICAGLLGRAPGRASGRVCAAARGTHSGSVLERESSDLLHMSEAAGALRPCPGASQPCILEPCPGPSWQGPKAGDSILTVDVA
RGS16-Gao = modulates binding between human RGS16 and Galphao; O15492+P09471; bead-based flow cytometry RGS16-Galphao binding, fluorescence; actives lie on both sides; binding response (% of control), % at 10 µM; hit rate 0.38% among 220,000; AID 1441;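 active = below 25% or above 175%, edge rows of some plates excepted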;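 note: Galphao activated by GDP with aluminum fluoride before binding; 100% = wells without compound and 0% = beads without RGS; some results beyond the cut were filed as inactive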
Target sequence (O15492 whole entry, looked up): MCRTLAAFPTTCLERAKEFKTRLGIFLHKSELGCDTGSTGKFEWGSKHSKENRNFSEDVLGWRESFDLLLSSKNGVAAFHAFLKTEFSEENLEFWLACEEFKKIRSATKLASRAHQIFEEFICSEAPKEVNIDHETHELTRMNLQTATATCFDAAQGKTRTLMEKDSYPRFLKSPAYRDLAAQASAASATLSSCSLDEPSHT
Target sequence (P09471 whole entry, looked up): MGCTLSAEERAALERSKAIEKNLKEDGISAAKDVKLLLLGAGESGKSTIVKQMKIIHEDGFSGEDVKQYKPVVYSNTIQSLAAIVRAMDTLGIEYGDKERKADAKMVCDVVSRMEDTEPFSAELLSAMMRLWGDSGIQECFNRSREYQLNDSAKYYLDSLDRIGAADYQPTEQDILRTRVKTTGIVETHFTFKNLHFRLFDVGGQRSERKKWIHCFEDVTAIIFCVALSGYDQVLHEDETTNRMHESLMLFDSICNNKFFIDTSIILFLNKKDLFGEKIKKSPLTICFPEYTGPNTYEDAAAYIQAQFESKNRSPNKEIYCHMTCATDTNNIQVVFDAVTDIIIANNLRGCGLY
PKD1 kinase inh = PKD1 (human) kinase inhibition; Q15139; PKD1 kinase fluorescence polarization assay; inhibition, %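 (about 10 µM by stock and volumes)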; hit rate 0.056% among 200,000;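 active = inhibition of 50% or more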;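 note: controls were vehicle for no effect and a reference inhibitor for full effect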
INS promoter inh cell count = recorded beside INS promoter inh, whose call it bears; normalized cell count, %; measured here: cell count, toxicity; reference of the scale not given here;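 cells exposed to compound for 48 h; stained nuclei by imaging scaled within each plate; lower means fewer cells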
HSV replic up primary fold = also measured in HSV replic up; calls as there; fold increase; compound at 10 µM; measured here: primary screen fold increase 10 uM; tested in PC3 cells;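 GFP signal in the first replicate; 1 = infected wells without compound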
* hit, by the source's call; i = inactive; / = not tested or not shown; [ ] = another dose, or the depositor's remark.

compound,HSV replic up,HSV replic up primary fold,INS promoter inh,INS promoter inh cell count,GALR2 ag,RGS16-Gao,PKD1 kinase inh
O=C(c1cccc([N+](=O)[O-])c1)N1CC2C3C=CC(C3)C2C1 (stereo not given),i,1.1,40,95,/,97,6
O=C1CCCC(O)=C1N=Nc1cccc(C(=O)O)c1,i,0.83,27,127,/,100,-3
Cc1ccc(C(=O)NCCn2ccc3ccccc32)cc1[N+](=O)[O-],i,0.88,-64,163,/,109,0
CCOC(=O)c1c(NC(=O)C2CCCO2)sc(C(=O)OC(C)(C)C)c1C (stereo not given),i,0.99,21,153,-0.9,81,0
O=S(=O)(c1ccccc1)c1nc(-c2cccs2)oc1NCCCn1ccnc1,i,0.97,-19,94,-1.1,105,-8
COc1cc(/C=N/NC(=O)CC#N)cc(Br)c1O,i,0.93,/,/,/,107,-3
COc1ccc(OC)c(N(CC(=O)Nc2ccccc2C(=O)NCc2ccco2)S(C)(=O)=O)c1,i,1.1,30,89,0.3,100,1
COc1ccc(CCNc2c([N+](=O)[O-])c(=O)oc3ccccc23)cc1OC,i,0.86,10,81,-1.3,105,7
Fc1ccc(-c2cnc[nH]2)cc1,i,0.88,32,99,-3.0,104,0
Cc1cc(C)nc(/N=C2\NC(=O)CC(C(=O)O)N2c2ccc(Cl)cc2)n1 (stereo not given),i,1.1,/,/,-0.1,105,-7
COc1ccc(-c2ncccc2O)cc1,i,1,23,150,-0.3,102,-3
Cc1cc(C(=O)CSc2n[nH]c(N)n2)c(C)n1-c1cccc(F)c1,i,0.83,-15,162,-2.3,92,-4
CC1(NC(=S)Nc2ccc(NC(=S)NC3(C)CCS(=O)(=O)C3)cc2)CCS(=O)(=O)C1 (stereo not given),i,0.77,/,/,/,98,/
COC(=O)/C(C#N)=C\c1c(OC)[nH]c2ccccc12,i,0.86,/,/,/,101,/
Cc1cc(OCCCCNC(C)C)cc(C(C)C)c1,i,0.84,7,134,0.4,99,-8
Cc1ccccc1NC(=O)c1ccc(CN2CCc3ccccc3C2)cc1,i,0.97,0,109,-2.2,99,-2
COc1ccc(CNS(=O)(=O)NCc2ccc(C)cc2)cc1OC,/,/,31,83,/,98,-6
O=C(NCc1ccncc1)C(=O)NCc1ccncc1,i,0.88,/,/,/,106,-2
COC(=O)/C=c1/sc2n(c1=O)CCN=2,i,0.97,64,69,-3.0,90,4
O=C(Cc1cnn(-c2ccccc2)c1)c1ccc(O)c(O)c1O,i,0.83,-31,34,-2.7,91,8
CC(NO)/C(=N\O)c1cccs1 (stereo not given),i,0.79,/,/,-1.7,108,-1
O=C(Cn1c(NCCO)nc2ccccc21)NCC(F)(F)F,i,0.9,/,/,/,94,/
COc1ccc(C2Nc3ccccc3C(=O)N2c2ccc(C)cc2)cc1COc1ccccn1 (stereo not given),i,0.87,-29,142,-1.7,94,13
O=c1cc(O)nc(SCc2ccccc2)n1-c1ccc(Cl)cc1,i,0.83,/,/,/,93,-1
CC(C)N(C)CCOC(=O)C1COc2ccccc2O1 (stereo not given),i,0.89,/,/,/,104,/
N=C1c2ccccc2CN1NC(=O)COc1ccc(Cl)cc1,i,0.89,15,129,/,88,-6
COc1ccc(/C=C2\CCc3ccccc3C2=O)cc1Cn1nc(C)cc1C,i,0.84,-25,85,-2.5,103,-1
O=S(=O)(c1ccc(NC(=S)NCc2ccncc2)cc1)N1CCCCC1,i,0.92,/,/,/,96,/
N#CCCN1CCCc2cc(N=Nc3ccc(C(F)(F)F)cc3)ccc21,i,0.95,/,/,/,102,/
COCC(=O)n1cc(C(=O)OC)c2ccccc21,i,0.97,-142,77,-2.3,87,-6
COc1ccccc1-n1cnnc1SC(C)C(=O)Nc1ccc(NC(C)=O)cc1 (stereo not given),i,0.84,/,/,/,101,-7
CC(/C=N/n1c(-c2n[nH]c3c2CCC3)n[nH]c1=S)=C\c1ccco1,i,1.2,/,/,/,96,/
Cc1ccc(C)c(N2CCN(S(=O)(=O)c3c(C)noc3/C=C/N(C)C)CC2)c1,i,1,7,56,-3.1,64,6
O=C(Nc1cccc(S(=O)(=O)NC2=NCCCCC2)c1)c1cccnc1Cl,i,1.2,/,/,/,121,/
Cc1ccc(SCC(=O)NN=C2CCN(C)CC2)cc1,i,0.94,/,/,/,101,-6
COc1ccc(CCN(C)S(=O)(=O)c2ccc(Cl)nc2)cc1OC,i,1,/,/,/,103,-2
CCCC(=O)NCn1nnc(-c2ccc(Cl)cc2)n1,i,0.99,-488,78,/,273*[activator],1
COc1cc2[nH]c(=S)n(C3CCCC3)c(=O)c2cc1OC,i,0.72,24,61,-1.3,182*[activator],0
CC(=O)c1cccc(NC(=S)Nc2ccn(Cc3cccc4ccccc34)n2)c1,i,0.82,/,/,/,103,-2
CC(C)C(=O)Nc1ccc(C(=O)N/N=C/C2CC3C=CC2C3)cc1 (stereo not given),/,/,-25,72,-0.5,59,-10

New compounds follow.
The line under a structure holds: HSV replic up | HSV replic up primary fold | INS promoter inh | INS promoter inh cell count | GALR2 ag | RGS16-Gao | PKD1 kinase inh
- O=C(Cc1ccc(F)cc1)Nc1cccc(-c2ccc3nncn3n2)c1
    i | 0.74 | / | / | / | 102 | -7
- Cc1ccc(-n2nnc3c(=O)n(Cc4ccccc4C)cnc32)cc1
    i | 1.1 | / | / | -2.0 | 103 | -21
- CCn1ccnc1[C@@H]1C[C@H]2CN(Cc3cccc(Cl)c3)C(=O)[C@]23CCCN13
    i | 1 | / | / | / | 95 | 2
- O=c1[nH]c2c(s1)C(c1cccnc1)C1C3CCC(C3)C1S2 (stereo not given)
    i | 1 | / | / | / | 98 | /
- O=C(CSc1ncn[nH]1)Nc1ccc(Br)cc1F
    i | 0.92 | 9 | 100 | -3.3 | 99 | -9
- CCOC(=O)N1CCN(C(=O)CSc2nc3c(cnn3-c3ccc(Cl)cc3)c(=O)[nH]2)CC1
    i | 0.93 | 10 | 145 | -0.5 | 105 | 3
- COc1ccc(N2CCN(C(=O)Nc3ccccc3Cl)CC2)cc1
    i | 1.1 | / | / | / | 69 | -2
- Nc1ccc(-n2nncc2-c2ccco2)cc1
    i | 0.93 | -406 | 53 | -0.5 | 103 | -3
- CCC(Sc1nc2sc(C(=O)OC)c(C)c2c(=O)n1N)C(=O)NCC1CCCO1 (stereo not given)
    i | 0.87 | 0 | 135 | -1.6 | 77 | -3
- CNc1[nH]ncc1[N+](=O)[O-]
    i | 0.9 | -18 | 192 | / | 111 | -7
- CCOC(=O)c1csc(NC(=O)c2ccc(S(=O)(=O)N3CCCC3)cc2)n1
    i | 0.83 | / | / | -0.3 | 96 | 1
- Cc1ccc(Nc2nc3nonc3[nH]c2=O)cc1Cl
    i | 0.89 | 0 | 61 | / | 98 | -3
- CC(NC(=O)CCSc1nc(-c2ccco2)cc(C(F)(F)F)n1)c1ccccc1 (stereo not given)
    i | 1.1 | -28 | 143 | 0.2 | 107 | -1
- Cc1c(C(=O)c2ccccc2)oc2ccc3ccccc3c12
    i | 1.1 | / | / | / | 97 | /
- CCOC(=O)c1csc(NC(=O)C(C)(C)C)n1
    i | 0.81 | / | / | -3.4 | 102 | 2

2 of the compounds above, as labelled records:
COc1ccc(-c2ncccc2O)cc1
  HSV replic up = i | HSV replic up primary fold = 1 | INS promoter inh = 23 | INS promoter inh cell count = 150 | GALR2 ag = -0.3 | RGS16-Gao = 102 | PKD1 kinase inh = -3
Cc1cc(C(=O)CSc2n[nH]c(N)n2)c(C)n1-c1cccc(F)c1
  HSV replic up = i | HSV replic up primary fold = 0.83 | INS promoter inh = -15 | INS promoter inh cell count = 162 | GALR2 ag = -2.3 | RGS16-Gao = 92 | PKD1 kinase inh = -4

Further results follow:
The line under a structure holds: HSV replic up | HSV replic up primary fold | INS promoter inh | INS promoter inh cell count | GALR2 ag | RGS16-Gao | PKD1 kinase inh
- COc1ccc(-c2nc(CN3CCN(c4ccccc4OC)CC3)c(C)o2)cc1
    i | 1 | / | / | / | 101 | -14
- O=C(Oc1ccc(-c2cnc3ccccc3n2)cc1)c1cc([N+](=O)[O-])ccc1Cl
    i | 1 | / | / | -2.4 | 94 | -3
- O=c1[nH]cc(-c2ccccc2)c(=O)[nH]1
    i | 0.98 | / | / | / | 105 | /
- O=C(CSc1nnnn1-c1ccccc1)Nc1nsc(-c2ccccc2)n1
    i | 0.88 | 19 | 30 | -0.2 | 107 | -2
- O=S(=O)(/C=C/c1ccccc1)N1CCN(c2ccccc2)CC1
    i | 1 | 29 | 126 | -4.6 | 101 | 0
- Cc1nn(C(=O)Cn2ccc([N+](=O)[O-])n2)c(C)c1Br
    i | 0.81 | / | / | -1.7 | 90 | 0
- O=C(Cn1c(=O)oc2cc(S(=O)(=O)N3CCCC3)ccc21)Nc1ccc(C(F)(F)F)cc1
    i | 1 | / | / | 0.7 | 103 | 5
- COc1cccc2oc(-c3ccco3)cc(=O)c12
    i | 0.75 | -68 | 90 | -2.2 | 103 | -13
- Cc1cccc(/C(N)=N/OC(=O)c2ccc(Cl)cc2Cl)c1
    i | 0.92 | -26 | 131 | -1.3 | 97 | -9
- O=C(O)c1ccc2ncsc2c1
    i | 1 | / | / | / | 105 | /
- O=S(=O)(Nc1ccc2c(c1)nc1n2CCOC1)c1ccccc1
    i | 0.81 | / | / | 0.6 | 104 | -1
- CCn1c(/C=C/c2ccccc2C)nc2ccccc2c1=O
    i | 1.1 | / | / | / | 111 | /
- O=C(O)CNC(=O)c1nc(-c2ccccc2)n(-c2ccccc2)n1
    i | 0.91 | 19 | 98 | -1.6 | 101 | -3
- O=C(O)[C@H](CSCc1ccccc1)NS(=O)(=O)c1ccc(F)cc1
    i | 1.1 | -16 | 44 | -3.0 | 121 | -1
- CC(NC(=O)Cn1cc(C(=O)C2CC2)c2ccccc21)c1ccccc1 (stereo not given)
    i | 0.95 | -11 | 138 | -1.3 | 101 | 1

Gathered by group, the entries above with bromine.
The line under a structure holds: HSV replic up | HSV replic up primary fold | INS promoter inh | INS promoter inh cell count | GALR2 ag | RGS16-Gao | PKD1 kinase inh
- COc1cc(/C=N/NC(=O)CC#N)cc(Br)c1O
    i | 0.93 | / | / | / | 107 | -3
- O=C(CSc1ncn[nH]1)Nc1ccc(Br)cc1F
    i | 0.92 | 9 | 100 | -3.3 | 99 | -9
- Cc1nn(C(=O)Cn2ccc([N+](=O)[O-])n2)c(C)c1Br
    i | 0.81 | / | / | -1.7 | 90 | 0

(more compounds)
The line under a structure holds: HSV replic up | HSV replic up primary fold | INS promoter inh | INS promoter inh cell count | GALR2 ag | RGS16-Gao | PKD1 kinase inh
- CCOc1ccc2ccccc2c1/C=N\NC(=O)OC
    i | 1.1 | 0 | 47 | 1.1 | 103 | -2
- Cc1cccc(NC(=O)CC2SC(=O)N(c3ccccc3)C2=O)c1 (stereo not given)
    i | 0.99 | 36 | 106 | -3.8 | 237 | -2
- O=C1CC(c2ccco2)CC(O)=C1C=NCCN1CCN(C(=O)Nc2ccc(Cl)cc2)CC1 (stereo not given)
    i | 1 | / | / | -1.6 | 118 | 16
- O=C(CCCN1C(=O)c2ccccc2C1=O)Nc1nccs1
    i | 1.1 | 30 | 113 | 0.1 | 94 | -3
- Cc1cccc(C)c1NC(=O)COc1ccc2c(C)c(Cc3ccccc3)c(=O)oc2c1
    i | 1 | 6 | 88 | -1.5 | 99 | 11
- CC(C)(C)c1ccc(S(=O)(=O)N2CCC(O)(c3ccc(Cl)cc3)CC2)cc1
    i | 0.97 | / | / | / | 66 | /
- C=CCOc1c(Br)cc(CNc2ccc(NC(=O)CCC)cc2)cc1OCC
    i | 0.95 | 52 | 56 | -0.3 | 101 | -9
- Clc1cccc(-c2nc3nc4ccccc4nc3n2Cc2ccccc2)c1
    i | 0.95 | -56 | 90 | -0.8 | 100 | 3
- CC(=O)Nc1cccc(N=NN2CCCCC2)c1
    i | 1.1 | / | / | / | 99 | -5
- CNc1c(N)n(Cc2ccccc2)c(=O)[nH]c1=O
    i | 0.84 | 6 | 86 | -1.5 | 102 | 5
- CC(C)NC(=O)NC(=O)CSc1ncc(C(F)(F)F)cc1Cl
    i | 0.89 | -9 | 96 | -3.0 | 101 | 1
- Cn1c(SCC(=O)N2c3ccccc3Sc3ccccc32)nnc1-c1ccco1
    i | 0.83 | 24 | 66 | 1.4 | 106 | 1
- CCN(c1ccc(C)c(C)c1)S(=O)(=O)c1c(C)[nH]c(=O)[nH]c1=O
    i | 0.67 | -46 | 136 | -0.3 | 104 | -5
- CCC(C)(C(=O)NC1CCCCC1)N(Cc1ccco1)C(=O)Cc1cccs1 (stereo not given)
    i | 1.1 | -45 | 101 | -2.3 | 104 | 4
- CCOC(=O)N1CCN(C(=O)c2ccc(N(Cc3ccccc3)S(C)(=O)=O)cc2)CC1
    i | 0.83 | -7 | 110 | 0.5 | 102 | 0
- Cn1c(C(C(=O)NCC2CCCO2)N(CCc2ccccc2)C(=O)Cn2nnc3ccccc32)nc2ccccc21 (stereo not given)
    i | 0.91 | -50 | 97 | -1.7 | 101 | -7
